Tgondii IFNg – T. gondii growth inhibition with IFN-gamma, primary screen, cell-based; activity change, negative = inhibition, %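 (about 20 µM by stock and volumes)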; actives 3.8% (n = 69,000); Toxoplasma gondii growth in IFN-gamma-treated host cells; active compounds read low; reference of the scale not given here;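 active means below -70%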;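 further: host cells are HeLa cells infected with Toxoplasma gondii; parasite growth read as luciferase light; one replicate is shown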
* marks the source's active call; other numbers are inactive results; & = joins results of further samples. These rows are one share of the data (hit frequency here may not be typical).

Molecule,Tgondii IFNg
COc1ccc(CN2CCc3nc(SCc4nc(-c5ccccc5)oc4C)[nH]c(=O)c3C2)cc1,-15
O=C(c1ccc2onc(-c3coc(-c4ccc(F)cc4)n3)c2c1)N1CCCO1,-13
CN1CC[C@@]2(C(=O)N3CCCC3)CCN(S(=O)(=O)c3ccccc3)CC[C@H]12,5
CC(C)Cn1cnc2nnc3ccc(C(=O)CCN4CCOCC4)cc3c21,-14
CC(NC(=O)c1cc2cc(S(=O)(=O)N(C)C)ccc2n1Cc1ccncc1)c1ccccc1 (stereo not drawn),112
C[C@H](NC[C@H](O)CP(=O)(O)CC1CCCCC1)c1ccc(Cl)c(Cl)c1,9
COc1ccc(CCN(C)C2CCCN(c3ccnc(N)n3)C2)cc1OC (stereo not drawn),-2
CNC(=O)C(C)(C)N(C)C(=O)c1ccccc1N1CCOCC1,73
Cc1cnc(C)c(N2CCN(Cc3ccc4cccc(O)c4n3)CC2)n1,-13
CC(C)c1cc(C2CCN(Cc3ccc(C4CCCCO4)o3)CC2)[nH]n1 (stereo not drawn),-43
O=S(=O)(c1ccc(-c2ccccc2)cc1)N1C[C@@H]2N[C@H](C1)C2c1ccc(-c2ccncc2)cc1 (stereo partly drawn),-55
CC(=O)C1=C(O)C(=O)OC1c1ccc(C)cc1 (stereo not drawn),30
COCCN1C(=O)CCc2cc(NS(=O)(=O)c3ccccc3Cl)ccc21,69
COCC(=O)N1CCC2(CC1)CC(CC(=O)NCC(C)C)c1ccccc1O2 (stereo not drawn),27
C1CCc2c(nn3c2n2nc4c(c2n2nc5c(c32)CCCC5)CCCC4)C1,23

Exported field by field: entries from further up
COc1ccc(CCN(C)C2CCCN(c3ccnc(N)n3)C2)cc1OC (stereo not drawn)
- Tgondii IFNg: -2
CNC(=O)C(C)(C)N(C)C(=O)c1ccccc1N1CCOCC1
- Tgondii IFNg: 73
Cc1cnc(C)c(N2CCN(Cc3ccc4cccc(O)c4n3)CC2)n1
- Tgondii IFNg: -13
CC(C)c1cc(C2CCN(Cc3ccc(C4CCCCO4)o3)CC2)[nH]n1 (stereo not drawn)
- Tgondii IFNg: -43

Other compounds
Molecule,Tgondii IFNg
C[C@H](CO)N1C[C@H](C)[C@@H](CN(C)Cc2cccc(C(F)(F)F)c2)OCc2ccccc2-c2c(n(C)c3ccccc23)C1=O,-59
O=C(c1ccco1)N(Cc1nc(-c2ccc(Cl)cc2)no1)C1CCCCC1,16
Cc1nc(CN2C(=O)C[C@H]3[C@H]2CCN3C(=O)C2CCOCC2)cs1,-5
COc1ccc(CC(=O)N2CCC(Cc3ccccc3-c3ccccc3)(C(N)=O)CC2)cc1,31
Cn1ccnc1C1(O)CCN(C(=O)CC2CCCCC2)CC1,-1
Cc1ccc(C)c(NC(=O)CCNCC(=O)Nc2cnccn2)c1,-26
CO[C@@H]1CN(C)C(=O)c2cc(NC(=O)C3CCCCC3)ccc2OC[C@@H](C)N(C(=O)c2ccccc2)C[C@@H]1C,-33
CO[C@H]1CC[C@H]2CCOc3c(C#N)cccc3C(=O)N(C)C[C@H](OC)[C@@H](C)C(=O)N(C)C[C@H]1O2,-12
Clc1ccccc1CSc1nnc(-c2cccnc2)n1Cc1ccccc1,-6
COC(=O)c1[nH]c(C(=O)OC)c(O)c1O,35
CCS(=O)(=O)N1CCC2(CC1)OC(=O)C(C)=C2C(=O)Nc1cccc(Cl)c1Cl,17
CN1C(=O)CCc2cc(NC(=O)CC3CCCCC3)ccc21,36
Cc1cccc(COC[C@]23COC[C@H]2CN(c2ncccn2)C3)n1,6
COc1ccc2nc(-c3ccc(N)cc3)[nH]c2c1,-32
Cc1ccc(C2(O)CCN(S(=O)(=O)c3sccc3C)CC2)nc1,0
CN(C)Cc1ccc(-c2cc(N)ccn2)cc1,-5
Cc1nn(Cc2ccccc2)c(C)c1CN1CCc2c(nc(-c3ccncc3)[nH]c2=O)C1,-14
O=C(CN1C(=O)CSC1=O)NC1CCN(CC2(c3ccccc3)CCCC2)CC1,25
CCOC(=O)c1[nH]ncc1-c1cncn1CCn1nc(C)c(C)c1C,-3
Cc1cccc(CSc2ccc(-c3sc(-c4ccc(F)cc4)nc3C)nn2)c1,3
COc1ccc(S(=O)(=O)Nc2ccc3c(c2)CC(=O)N([C@@H](C)CO)C[C@@H](C)[C@H](CN(C)Cc2ccc(C(=O)Nc4ccccc4N)cc2)O3)cc1,7
O=C(C1CCOCC1)N1CC[C@H]2[C@H](CO)Nc3ccc(-c4cccc(F)c4)cc3[C@H]21,8
O=C(NCCc1csc(-c2ccccc2)n1)[C@H]1CSCN1C(=O)c1ccc(F)cc1,6
FC(F)(F)c1ccncc1-c1ncc(-c2cccc(Cl)c2)o1,-95*
CN(C)S(=O)(=O)N1CC[C@@]2(C[C@H](OCCN3CCCC3)CO2)C1,-42
Cc1ccc(-n2nc(C)c3c(C)onc3c2=O)cc1,-12
Cc1cc(Cl)nc(-c2ccc(Br)cc2)n1,10
Cc1ccc(NC(=O)CC2SC(N)=NC2=O)cc1C (stereo not drawn),-16
CO[C@H]1CN(C)C(=O)c2ccc(NS(=O)(=O)c3c(C)noc3C)cc2OC[C@@H](C)NC[C@H]1C,62
Cn1cc(CC(=O)N2CCn3c(C(N)=O)cnc3C2)c2ccccc21,11
CSc1nnc(CC2CCN(C(=O)[C@H](N)Cc3ccccc3)CC2)n1C,-7
CN(C)CCNC(=O)c1ccc(CSc2ncccn2)o1,-8
Cc1cc(C)cc(-c2ccccc2CC2CN(C(=O)c3ccncc3)CCNC2=O)c1 (stereo not drawn),5
O=C(CCc1cccnc1)N1C[C@@H]2[C@@H]3CC[C@@H](C3)[C@@H]2C1,-1
CCNC(=O)c1c2c(N3CCN(C)CC3)ncnc2n2ccccc12,35
Cc1cccc(C2c3[nH]c4ccccc4c3CCN2C(=O)c2ccccc2C)c1 (stereo not drawn),-85*
COc1ccccc1S(=O)(=O)N(C)C[C@@H]1OCc2ccccc2-c2ccccc2C(=O)N([C@H](C)CO)C[C@H]1C,-29
CN(C)C(=O)N1CCCn2c(nc(Cn3cncn3)cc2=O)C1,16
CCOC(=O)c1nn(CCc2ccccc2)c2c1CN(C(=O)CCc1nc3ccccc3s1)CC2,-37
CCN1[C@@H]2Cn3c(ccc(-c4ccccc4OC)c3=O)[C@H]1[C@@H](C(=O)NCc1ccccn1)[C@@H]2CO,4
CC(C)C1N=C2c3ccccc3N=C(SCc3cccc(F)c3)N2C1=O (stereo not drawn),6
Cc1cnn(Cc2nc(-c3ccc(NC(=O)c4ccc(C)c(F)c4)cc3)oc2C)c1,-13
Cc1ccc(-c2nc(CCNC(=O)C(=O)Nc3ccccc3C)cs2)cc1,-7
Cc1cccnc1CN(C)C(=O)c1cc(CC(C)C)nc(N)n1,-9
O=C(c1ccccc1Br)N1CCC2(CC1)Nc1cc(F)ccc1-n1cccc12,38

Fetched by structure from the list above (four):
Molecule,Tgondii IFNg
Cc1cccc(C2c3[nH]c4ccccc4c3CCN2C(=O)c2ccccc2C)c1 (stereo not drawn),-85*
CCN1[C@@H]2Cn3c(ccc(-c4ccccc4OC)c3=O)[C@H]1[C@@H](C(=O)NCc1ccccn1)[C@@H]2CO,4
CCNC(=O)c1c2c(N3CCN(C)CC3)ncnc2n2ccccc12,35
O=C(CCc1cccnc1)N1C[C@@H]2[C@@H]3CC[C@@H](C3)[C@@H]2C1,-1

Later entries
mol	Tgondii IFNg
CN(Cc1ccsc1)Cc1ccc(-c2ccn[nH]2)o1	13
CCCn1cnc(NC(=O)C(C)n2nc(C)cc2C)n1 (stereo not drawn)	10
Cn1cccc1C(=O)NC[C@@H]1OC[C@@H]2CCN(C(N)=O)C[C@H]21	79
COc1ccc(OC)c(S(=O)(=O)NCCc2ccccn2)c1	19
CC1=C(C(=O)NCc2cccs2)C2(CCN(S(=O)(=O)c3cccs3)CC2)OC1=O	-3
O=c1c(Cc2ccc(Cl)cc2Cl)c(-c2ccccc2)sc2ccccc12	29
Cc1noc(C)c1NC(=O)N(C)C[C@@H]1OCc2ccccc2-c2c(n(C)c3ccccc23)C(=O)N([C@@H](C)CO)C[C@@H]1C	51
CCCOc1ccc(CNC(=O)c2nnn(Cc3nc(-c4ccc(C)cc4)oc3C)c2C)cc1	-21
Cc1nnsc1CN(C)c1nccc(CCC(F)(F)F)n1	0
OC[C@@H]1[C@@H](c2ccccc2)C2(CN(CC3CCOCC3)C2)N1Cc1cncnc1	-19
Cc1cc(C)cc(NC(=O)c2nnn(Cc3nc(-c4ccccc4)oc3C)c2C)c1	-41
Cn1nc(C(=O)Nc2ccc(N3CCCCC3)c(C(F)(F)F)c2)ccc1=O	-54
COc1ccc(OC)c(C(=O)c2ccc(Cl)cc2)c1	37
O[C@H]1CN(c2nc3ccccc3s2)C[C@@H]1N1CCN(c2ccccn2)CC1	1
OCCC1CN(CC2CCCCC2)CCN1Cc1ccc(F)c(F)c1 (stereo not drawn)	-7
Cc1ccc(CN2CC[C@H]3[C@@H]2CCN3CC2CCOCC2)s1	-2
Cc1nc2ccccc2nc1CN1CCC(CNC(=O)NC(C)C)C1 (stereo not drawn)	0
COc1cccc(NC(=O)N2CC3(C2)[C@H](c2ccccc2)[C@@H](CO)N3C(C)=O)c1	-15
CCN(C(=O)c1cccc(NC(=O)CSc2nncn2C)c1)c1ccccc1	7
CC(=O)c1csc(-c2cc(C)on2)n1	36
CCO[C@H]1CO[C@@]2(CCCN(C(=O)c3cccc(C)n3)C2)C1	22
O=C(CCCn1cnnn1)Nc1cnc2n1CCCC2	15
O=S(=O)(NC1CCC12CCN(Cc1cccs1)CC2)c1ccccc1 (stereo not drawn)	1
CO[C@H](CN(C)Cc1ccc2c(c1)OCO2)[C@@H](C)CN(C(=O)Nc1ccc(F)cc1)[C@H](C)CO	-14

Individual results from above:
`Cc1ccc(CN2CC[C@H]3[C@@H]2CCN3CC2CCOCC2)s1` in Tgondii IFNg is listed with -2
`CCO[C@H]1CO[C@@]2(CCCN(C(=O)c3cccc(C)n3)C2)C1` in Tgondii IFNg is listed with 22
`O[C@H]1CN(c2nc3ccccc3s2)C[C@@H]1N1CCN(c2ccccn2)CC1` in Tgondii IFNg is listed with 1
`O=S(=O)(NC1CCC12CCN(Cc1cccs1)CC2)c1ccccc1` (stereo not drawn) in Tgondii IFNg is listed with 1
`COc1ccc(OC)c(C(=O)c2ccc(Cl)cc2)c1` in Tgondii IFNg is listed with 37
`CCN(C(=O)c1cccc(NC(=O)CSc2nncn2C)c1)c1ccccc1` in Tgondii IFNg is listed with 7

Next records.
mol	Tgondii IFNg
C[C@H](CO)N1C[C@H](C)[C@H](CN(C)S(=O)(=O)c2cn(C)cn2)OCc2ccccc2-c2ccccc2C1=O	29
Cc1ccc(-c2coc(-c3ccc(NC(=O)CC4CCCCC4)cc3)n2)cc1	-6
COc1ccccc1S(=O)(=O)N1CC[C@@H]2[C@@H](CO)N(C)c3ccc(-c4cccc(C#N)c4)cc3[C@@H]21	-14
COc1ccc(NC(=O)c2cncc(NS(=O)(=O)c3ccc(Br)cc3)c2)c(C)c1	16
C#CCN[C@@H]1CCc2ccccc21	9
COc1ccc(S(=O)(=O)NCCc2csc(-c3ccc(Cl)cc3)n2)cc1	-35
COc1ccc(Oc2ccc(C(F)(F)F)c(NC(=O)C3CCC3C(=O)O)c2)cc1 (stereo not drawn)	18
CCN1c2cc(C)ccc2-n2cccc2C12CCN(S(=O)(=O)c1ccc(C)cc1)CC2	-86*
CC(=O)Oc1cccc(C)c1	6
Cc1nc(-c2cccc(F)c2)sc1CCNS(=O)(=O)c1ccc(F)cc1	17
Cc1ccc(NS(=O)(=O)c2cc3c4c(c2)CCC(=O)N4CCC3)cc1C	-2
Cc1cc(C)c2c(NC3CCNCC3)n[nH]c2n1	29
Cc1cc(C)n(CC(C)NC(=O)CNS(=O)(=O)c2cccc3cccnc23)n1 (stereo not drawn)	-4
O=C(C[C@@H]1CC[C@@H]2[C@H](COC[C@@H](O)CN2C(=O)CCN2CCCCC2)O1)NCc1ccncc1	-45
CC1Cc2cc(CN(C)C(=O)CCc3ccc4c(c3)n(C)c(=O)n4C)ccc2O1 (stereo not drawn)	0
CO[C@H](CN(C)Cc1cc(F)ccc1F)[C@@H](C)CN([C@H](C)CO)S(=O)(=O)c1ccc(C)cc1	-46
COc1ccc(/C=C/CN2CCC3(CC2)C(=O)N(C)C(=O)N3CC(C)C)cc1	17
COc1ccc(CNC(=O)CC2N=C3c4ccccc4N=C(SCc4cccc(F)c4)N3C2=O)cc1 (stereo not drawn)	-8
C=CCN1CCC2(CC1)CC(NCc1ccc(C)s1)c1ccccc1O2 (stereo not drawn)	-38
O=C(c1nnc2n1CCCC2)N1CCc2c(ncnc2N2CCOCC2)C1	-1
Cc1c(COC(=O)c2ccc(Cl)cc2Cl)sc2ccccc12	-60
Cn1cnc(-c2nc(C(=O)NCC3CCCO3)c3ccccn23)c1 (stereo not drawn)	-20
COc1ccccc1NC(=S)NCCc1ccc(OC)c(OC)c1	-3
O=c1[nH]nc(-c2cc3c(s2)CCCC3)o1	-100*
Fc1cccc(CNc2nc(-c3nnc(-c4ccccc4)o3)nc3ccccc23)c1	123
COc1ccccc1NC(=O)c1nnn(Cc2nc(-c3ccccc3OC)oc2C)c1C	148
N=C1C(c2nc3ccccc3s2)=C(O)CN1CCc1c[nH]c2ccccc12	8
Cc1ccc(CN2CCn3cc(CNC(=O)c4cccn4C)nc3C2)s1	-5
CCn1ccc(C(=O)Nc2sc(C(=O)OC)c(C)c2C(=O)OC)n1	30
CO[C@H]1CN(C)C(=O)c2ccc(NS(=O)(=O)CC(F)(F)F)cc2OC[C@@H](C)N(C(=O)NC(C)C)C[C@H]1C	78
O=C(NCc1ccc(S(=O)(=O)N2CCCC2)cc1)c1cn[nH]c1-c1ccccc1	28
CCn1cc(C(=O)O)c(=O)c2cc(F)c(N3CCNCC3)cc21	-18&8&-26
CCOC(=O)C(c1ccccc1)C(Nc1ccc(Cl)c(Cl)c1)c1ccccn1 (stereo not drawn)	-31
CCN1CCN(C(=O)c2coc(COc3ccc4c(c3)OCO4)n2)C(C)C1=O (stereo not drawn)	41
CN(C)c1cccc2cccc(N(C)C)c12	-3
Cc1ccc2[nH]c(-c3ccccc3)c(CN3CCOCC3)c(=O)c2c1	-48
CN1CCC2(COCCN(S(=O)(=O)c3cccc(F)c3)C2)C1 (stereo not drawn)	12
COc1ccc2c(c1)NC1(CCN(C(=O)Cc3ccc(F)cc3)CC1)c1cccn1-2	-84*

Screens from PubChem BioAssay.
